# VACV Venus inh: inhibitors of vaccinia virus (Venus reporter). Vaccinia virus Venus reporter expression, fluorescence. 330,000 tested, 0.46% active. AID 720580. Potency, µM (titrated, usually from 36.5 µM), without a hit: top-dose activity change, negative = inhibition, usual class: inhibitors; active means well fitted inhibition curve with a large enough effect; inconclusive means small, poorly fitted or top-dose-only effect; inactive means no such curve, though single readings can be large or run the other way; tested in A549 cells; note: nearly all actives have a fitted effect of over 30% in size; inactives centre near -10
# VACV mCherry inh: vaccinia inhibition (mCherry reporter). 310,000 tested, 0.63% active. Potency, µM (series often up to 36.5 µM), inactives show at the top dose activity change, negative = inhibition, actives largely listed as inhibitors. Vaccinia virus mCherry reporter infection, fluorescence; about a quarter of the inactives have no number; active = well fitted inhibition curve with a large enough effect; inconclusive = small, poorly fitted or top-dose-only effect; inactive = no such curve, though single readings can be large or run the other way; tested in A549 cells; note: nearly all actives have a fitted effect of over 35% in size; inactives centre near -10
# * marks the source's active call; other numbers are inactive results; i = inactive; u = inconclusive; x = not tested or not shown; [ ] = remark or other dose. % is set by controls: 0 for no effect and ±100 for the full control effect; potency is the fitted concentration of half-maximal effect.
# Every second line gives: VACV Venus inh, VACV mCherry inh
1: CCOc1cccc2sc(N(CCN(C)C)C(=O)CCS(=O)(=O)c3ccccc3)nc12
  u, -13.3%
2: CCOc1cccc(C(=O)N/N=C/c2ccoc2)c1
  -13.6%, -3.9%
3: Cc1ccccc1-c1cc2nc(NCc3ccc4occc4c3)n(C)c(=O)c2s1
  u, -22.5%
4: COc1cc(-c2cc(-c3nnco3)c3ccccc3n2)cc(OC)c1OC
  -10.5%, -13.9%
5: COc1ccc(C(c2sc3nc(C)nn3c2O)N2CC(C)OC(C)C2)cc1OC (stereo not drawn)
  -7.2%, i
6: CC(C)CC(NC(=O)C(NC(=O)C(Cc1ccc(OCc2ccccc2)cc1)NC(=O)OC(C)(C)C)C(C)C)C(N)=O (stereo not drawn)
  -2.3%, -11.7%
7: Cc1cc(C(=O)Cn2cnc3cc(F)ccc3c2=O)c(C)n1C1CC1
  2.9%, -14.8%
8: CC(C)=CC(=O)OCC(=O)Nc1ncc(Cl)c(C)c1Cl
  -2.1%, -12.1%
9: CC(C)(C)N(NC(=O)Nc1ccccc1)C(=O)c1ccccc1Cl
  -7.2%, -13.7%
10: CC1(C)C(=O)Nc2ccccc2N1C(=O)COc1ccc(S(=O)(=O)N2CCOCC2)cc1Cl
  -5.0%, x
11: CC(=O)c1ccc2c(c1)OCO2
  12.2%, 1.8%
12: O=C(CSCc1ccccc1Cl)NNC(=S)Nc1ccccc1
  -10.9%, i
13: O=C(CSc1nc2ccccc2c(=O)n1CC1CCCO1)Nc1ccccc1Cl (stereo not drawn)
  -2.6%, -13.9%
14: CCCN=C1CC(C)(C)CC(=O)/C1=C(/O)CCCN1C(=O)c2ccccc2C1=O
  -10.1%, i
15: COc1ccc(C(=O)N/C(=C\c2ccco2)C(=O)NCc2cccnc2)cc1
  2.1%, i
16: COc1cccc(OC)c1C(=O)NC(=S)Nc1ccc(S(=O)(=O)Nc2nccs2)cc1
  -26.8%, -2.9%
17: CS(=O)(=O)N1CCN(c2ccccc2NC(=O)c2cccnc2Cl)CC1
  2.5%, x
18: CC1(C(=O)Nc2cccc(C(F)(F)F)c2)Cc2c(-c3cccc(C(N)=O)c3)ccnc2O1 (stereo not drawn)
  -26.7%, -17.4%
19: COc1ccc(C2c3cc(OC)c(OC)cc3CC3C(=O)OCC32)cc1OC (stereo not drawn)
  -0.6%, -15.9%
20: O=C(NCCN1CCCCC1)c1cc(Cl)ccc1Cl
  -10.6%, -14.4%

# Record cards (already shown). Values in the order: VACV Venus inh, VACV mCherry inh
# `O=C(NCCN1CCCCC1)c1cc(Cl)ccc1Cl` is listed with -10.6%, -14.4%
# `O=C(CSCc1ccccc1Cl)NNC(=S)Nc1ccccc1` is listed with -10.9%, i
# `CC(C)(C)N(NC(=O)Nc1ccccc1)C(=O)c1ccccc1Cl` is listed with -7.2%, -13.7%

# The list continues:
# Every second line gives: VACV Venus inh, VACV mCherry inh
21: Clc1ccc(-c2nc3ncccn3c2Nc2ccc3c(c2)OCCO3)cc1
  1.1%, -13.7%
22: COc1ccc(Cl)cc1NC(=O)CN(C)C(=O)c1cc(-c2cccs2)nn1-c1ccccc1
  -12.9%, u
23: CN(C(=O)c1ccc(NC(=O)Cc2ccc(NC(=O)C3CCCN(C(=O)C4CC4)C3)cc2)cc1)C1CC1 (stereo not drawn)
  1.3%, -9.2%
24: OCCN1CCN(c2ncnc3c2ncn3[C@H]2CN(Cc3ccncc3)C[C@@H](CO)O2)CC1
  15.4%, -7.6%
25: O=C(O)c1ccc(-n2nncc2-c2ccco2)cc1
  -1.3%, i
26: Cc1cc(C)c(C)c(OCCOCCNCc2ccccc2)c1
  -10.7%, -17.1%
27: CC(C)=CCC12Oc3cc(O)ccc3C1(O)Oc1cc(O)c([C@H]3C=C(C)CC(c4ccc(O)cc4O)[C@H]3C(=O)c3ccc(O)cc3O)c(O)c1C2=O (stereo partly drawn)
  -6.4%, -7.5%
28: COCCOC(=O)c1ccc(NC(=O)COc2ccc([N+](=O)[O-])cc2)cc1
  -1.8%, 0.0%
29: CCSc1ncc(Cl)c(C(=O)Nc2cccc(Cl)c2)n1
  -1.3%, -5.6%
30: COc1cc(OC)c(C(=O)/C=C/c2ccccc2)c(O)c1O
  u, u
31: CCOc1ccc(NC(=O)CSc2nnc3scc(-c4ccccc4)n23)cc1
  -11.4%, -24.0%
32: CC(=O)Nc1sc(C)c(C)c1C(=O)OCC(=O)N(C)c1c(N)n(Cc2ccccc2)c(=O)[nH]c1=O
  -2.9%, -12.7%
33: CCOc1ccccc1Nc1nc(-c2sc(C)nc2C)cs1
  u, 3.55µM*
34: CN(C)c1ccc(C(=O)NC2CCCc3ccccc32)cc1 (stereo not drawn)
  -15.2%, u
35: O=C(CSc1ccc(Cl)cc1)OCC(=O)N1CCN(c2ccccc2)CC1
  -9.5%, i
36: COc1ccc2c(C)c(CC(=O)N3C[C@H]4C[C@@H](C3)c3cccc(=O)n3C4)c(=O)oc2c1C
  -0.6%, -0.9%
37: O=c1cc(-c2ccccc2)oc2c(O)c(O)ccc12
  u, u
38: C=CCN1C(=O)C(CCCC)NC1=S (stereo not drawn)
  -13.6%, -10.6%
39: CC(C)c1nnc(NC(=O)C2CCCCC2)s1
  -11.5%, -10.7%
40: Cn1c2ccccc2c2n[nH]c(=S)nc21
  -16.8%, i
41: CC[C@]12c3[nH]c4cc(CCC(=O)N(C)C)ccc4c3CCN1C(=O)[C@@H](CC(=O)NCc1cccc(C(F)(F)F)c1)C[C@@H]2C(=O)N1CCN(C(=O)C2CC2)CC1
  4.2%, -1.5%
42: CCCCNc1c2c3c(cccc3n(C)c1=O)C(=O)c1ccccc1-2
  42.6%[activator], -7.8%
43: O=C1NC(=O)C(C2CCOC2=O)N1 (stereo not drawn)
  -8.2%, i
44: O=C(Nc1nc2c(s1)CCCC2)c1cc(-c2ccncc2)nc2ccccc12
  -15.8%, -18.1%
45: CCOC(=O)c1cccc(NC(=O)NC2COc3ccccc3C2)c1 (stereo not drawn)
  -11.4%, -4.1%
46: C[C@]12c3[nH]c4cc(-c5ccco5)ccc4c3CCN1C(=O)[C@@H](CC(=O)NCCc1ccccn1)C[C@@H]2C(=O)N1CCCCC1
  u, u
47: O=C(Cc1ccccc1)NC(NCCc1ccccc1)C(Cl)(Cl)Cl (stereo not drawn)
  -28.8%, i
48: Clc1ccccc1OCc1nc(-c2ccccn2)no1
  1.0%, 21.6%
49: COc1cccc(C(=O)CN2C(=O)C(C)(C)Oc3ccc(C(=O)N4CCCCCC4)cc32)c1
  -2.1%, -18.4%
50: CCCC(=O)Nc1nnc(S(=O)(=O)N2CCCC2)s1
  -3.7%, 7.4%
51: Cc1noc(C)c1CSc1nnc(-c2ccccc2)o1
  -5.7%, i
52: Cc1cccc(OCc2nnc(SCC(=O)N3c4ccccc4CC3C)n2C)c1C (stereo not drawn)
  -28.2%, u
53: O=C(/C=C/c1ccc(F)cc1)Nc1cccc(S(=O)(=O)N2CCOCC2)c1
  -29.2%, -17.9%
54: COc1ccccc1OCCSc1nc2ccccc2n1CCO
  6.8%, 12.3%
55: Cc1nc2c(-c3ccccc3)cnn2c(N2CCOCC2)c1C
  -18.1%, -4.2%
56: Cc1cc[n+](CCC(=O)O)c2ccccc12
  -6.8%, -17.4%
57: O=C(O)C(C=C(Cl)Cl)N1CCOCC1 (stereo not drawn)
  -2.8%, i
58: CCc1cccc(CC)c1NC(=O)CN1CCN(c2ccccc2)CC1
  -11.3%, -7.3%
59: C=CCNC(=S)N1CCN(CCN=CC2=C(O)CC(c3ccc(Cl)cc3)CC2=O)CC1 (stereo not drawn)
  -14.4%, -18.8%
60: CCOC(=O)N1CCN(C(=O)CN(CC)S(=O)(=O)c2cc(C)ccc2OC)CC1
  -15.7%, -12.1%
61: S=c1[nH]nc(-c2ccccc2)n1/N=C/c1c[nH]c2ccccc12
  -0.2%, i
62: COc1ccc2[nH]cc(CCNc3ncnc4ccc(-c5ccccc5CN(C)C)cc34)c2c1
  0.0%, i
63: COC(=O)c1ccc(OCC(=O)NC2CCCCCCC2)cc1
  -1.0%, -8.7%
64: O=C(CCN1C(=O)c2ccccc2C1=O)Nc1sc2c(c1C(=O)NCC1CCCO1)CCC2 (stereo not drawn)
  -10.7%, -13.8%
65: O=c1c(=O)n(-c2cccc(Cl)c2)ccn1Cc1cccc(F)c1
  -9.2%, -14.1%
66: COc1ccc(-c2nc3sc(CCNS(=O)(=O)c4ccccc4)c(C)n3n2)cc1
  -18.6%, -19.1%
67: CN(C)C(CNC(=O)CCc1nc2ccccc2s1)c1ccccc1 (stereo not drawn)
  -12.5%, u
68: CC1CCN(C2=NC(=O)/C(=C/c3cn(-c4ccccc4)nc3-c3cccc(S(=O)(=O)N(C)C)c3)S2)CC1
  4.5%, -9.1%
69: CC1(C)CC(N(CCc2ccccc2)Cc2ccccc2)CCO1 (stereo not drawn)
  3.9%, -11.9%
70: CCC(c1nnc(SCC(=O)N2CC(=O)Nc3ccccc32)n1Cc1ccccc1)N(C)C (stereo not drawn)
  -13.6%, x
71: CNc1n[nH]c(=S)s1
  -5.2%, i
72: CCOC(=O)C1CCCN(C(=O)c2cccc(NC(=O)c3nsc4ccccc34)c2)C1 (stereo not drawn)
  -1.5%, -4.2%
73: O=c1cc(CN2CCN(c3ccc(O)cc3)CC2)nc2scc(-c3ccccc3)n12
  -6.9%, i
74: COc1ccc(-c2nc(=S)[nH][nH]2)cc1
  12.6%, x
75: O=C(Nc1cccc(C(=O)OCc2cc(=O)n3c4c(sc3n2)CCCC4)c1)c1cccc(Cl)c1
  -11.6%, -14.2%
76: C[C@@H](C(=O)N1CCNCC1)n1cc(CCC(=O)O)nn1
  -7.3%, i
77: Cc1cccc(-n2c(SCC(=O)Nc3ncc(Cl)cc3Cl)nc3ccccc32)c1
  -24.4%, 3.16µM*
78: COc1ccc(C2CC(c3ccc(OC)c(OC)c3)=NN2S(C)(=O)=O)cc1 (stereo not drawn)
  -13.7%, i
79: O=c1c2ccccc2nc(/C=C/c2cccc([N+](=O)[O-])c2)n1CCO
  -18.4%, -10.5%
80: COc1ccc(C(=O)[C@H]2[C@H]3C(=O)N(c4ccccc4)C(=O)[C@H]3C3C=CC=NN32)cc1 (stereo partly drawn)
  19.5%, u

# (list continues)
# Every second line gives: VACV Venus inh, VACV mCherry inh
81: COc1ccc(/C=C(/NC(=O)c2ccccc2)C(=O)N/N=C/c2sccc2C)cc1
  -1.5%, -6.5%
82: CCc1noc(C)c1C(=O)NCCc1c[nH]c2ccccc12
  -3.1%, i
83: CCOC(=O)N1CCN(C(=O)C2CCCN(S(=O)(=O)c3ccc(OCC)cc3)C2)CC1 (stereo not drawn)
  -11.5%, -6.5%
84: CCc1ccc(C2c3c(-c4cc(C)ccc4O)n[nH]c3C(=O)N2Cc2cccnc2)cc1 (stereo not drawn)
  -10.4%, -10.2%
85: CCOc1ccc(C2C(C#N)=C(N)Oc3cc(C)[nH]c(=O)c32)cc1OC (stereo not drawn)
  -4.5%, -12.5%
86: COC(=O)CC(NS(=O)(=O)c1cccs1)c1ccc2c(c1)OCO2 (stereo not drawn)
  -22.3%, -3.7%
87: CCCCNC(=O)Nc1nnc(-c2ccc(Cl)cc2)o1
  -8.1%, i
88: CCCCNC(=O)COn1nnc2ccc(S(=O)(=O)N3CCOCC3)cc21
  -6.5%, -1.8%
89: O=C(CC1=NC2(CCCC2)Cc2ccccc21)N1CCOCC1
  -6.8%, -17.6%
90: COc1ccc2[nH]cc(CCNc3ncnc4ccc(-c5ccccc5C#N)cc34)c2c1
  -16.4%, -23.0%
91: Cc1ccc(-n2nnc3c(sc4nc(C)c(C)cc43)c2=O)cc1Cl
  -6.2%, -14.9%
92: CCNC(=O)Nn1c(C)nnc1C
  2.4%, x
93: COCCn1c(SCC(=O)N2CCCCC2)nc2cccnc21
  -13.8%, i
94: CC(=O)Nc1ccc(NC(=S)NC(=O)C2CCCC2)cc1
  -13.7%, -14.5%
95: Cc1cc2cc(CNC(=S)NCc3ccccc3)ccc2n1C
  -2.6%, i
96: COc1ccc(NC(=O)CN(C)C(=O)c2csc3c2CCCC3)cc1
  -21.2%, i
97: CSc1ccc(CN2C(=O)C(C)ON=C2c2ccccc2F)cc1 (stereo not drawn)
  -3.7%, 0.7%
98: COc1ccc2c(c1)C(=O)Nc1cc(Cl)ccc1N2
  -14.0%, -26.1%
99: CC1=C(C(=O)Nc2ccccc2)C(c2cccnc2)n2nc(SCc3ccccc3Cl)nc2N1 (stereo not drawn)
  -10.8%, -16.1%
100: CCN1CCc2nc(NC(=O)CC(c3ccccc3)c3ccccc3)sc2C1
  -16.7%, -3.4%
101: O=C(CC[C@H]1O[C@@H](n2ccc(=O)[nH]c2=O)[C@H](O)[C@@H]1O)NCc1ccccc1
  -1.5%, 0.6%
102: COCCN1C(=O)N[C@@H](CCc2ccccc2)C(C(C)=O)=C1C
  2.9%, i
103: CC1=C(C(=O)N(C)C)CC(CC(=O)NCC2CCCCC2)C(=O)N1Cc1ccc(C(C)(C)C)cc1 (stereo not drawn)
  u, -4.7%
104: CCOC(=O)N1CCN(C(=O)CSc2ccc(-c3ccc(OC)cc3)nn2)CC1
  -8.8%, i
105: CC(C)COC(=O)C1[C@H]2C(=O)N(Cc3cccs3)C[C@]23C=C[C@H]1O3 (stereo partly drawn)
  -1.2%, i
106: Cc1ccc2nc(NS(C)(=O)=O)sc2c1
  -3.5%, i
107: Cc1cccc(-c2nnn3c2nc(NCCC(C)C)c2ccccc23)c1
  -24.0%, -17.2%
108: Cc1csc(NC(=O)C2COc3ccccc3O2)n1 (stereo not drawn)
  1.1%, x
109: Cc1ccc(S(=O)(=O)Nc2ccc(F)c(F)c2O)cc1
  -16.2%, -5.9%
110: CCOc1ccccc1N1CCN(C(=O)COc2ccc3c(C)cc(=O)oc3c2)CC1
  -24.8%, -17.9%

# Bioassay records as filed in PubChem.

# No enrichment for hits; any-hit rate near 0.86%.
